Screening results as filed in PubChem BioAssay.
Fam108B inh = Fam108B inhibition, counter-screen for RBBP9 inhibitors; inhibition, % at 9.51 µM; recombinant Fam108B, FP-Rh probe fluorescence polarization; 0.33% of 300,000 active; AID 1947;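 active = inhibition above the screen mean inhibition plus 3 SD, computed separately per campaign, cut at about 18% in these data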;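 also: inhibitors lower polarization as less probe binds the enzyme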
AHR activator = human AHR activation; P35869; AHR-responsive luciferase reporter cells, luminescence; activation, % at 5 µM; 2.5% of 320,000 active; in the data active = activation above about 47%;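 also: 0% = vehicle wells and 100% = reference agonist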
MEX-5 binding = C. elegans MEX-5 TCR-2 RNA binding activity; Q9XUB2; MEX-5/FITC-TCR2 RNA binding, fluorescence polarization; active compounds read low; activity score (negative = inhibition of binding), % at 10 µM; 0.38% of 300,000 active;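 active = inhibition past about -25% in most replicates, and total fluorescence under double the plate's negative control median, limit read from the data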;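 also: 0% = DMSO and -100% = 5 µM competing unlabeled TCR2 RNA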
BCLXL inh = inhibitors of human Bcl-xL. GST-Bcl-xL / FITC-Bim BH3 peptide fluorescence polarization. inhibition, % at 10.9 µM. 0.7% of 320,000 active. AID 2129;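 active = inhibition above the mean of all tested compounds plus 3 SD, cutoff set per campaign, cut at about 30% in these data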;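 also: 0% = DMSO wells and 100% = unlabeled Bim-BH3 peptide competitor; inhibitors lower millipolarization by displacing the labeled peptide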
Target sequence (Q07817 whole entry, looked up): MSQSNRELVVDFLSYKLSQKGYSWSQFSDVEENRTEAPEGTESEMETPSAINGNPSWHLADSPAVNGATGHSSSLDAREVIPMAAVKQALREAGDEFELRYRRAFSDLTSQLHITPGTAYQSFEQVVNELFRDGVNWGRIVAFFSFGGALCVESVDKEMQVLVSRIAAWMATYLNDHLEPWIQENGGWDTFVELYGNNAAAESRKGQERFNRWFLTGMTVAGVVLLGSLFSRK
PAFAH1B2 inh = PAFAH1B2 (human) inhibition; recombinant PAFAH1B2, FP-rhodamine activity probe, fluorescence polarization; inhibition, % at 3.39 µM; 1.2% of 340,000 active; AID 492953;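 active = inhibition above the mean of all tested compounds plus 3 SD, cut at about 24% in these data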;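 also: 0% = enzyme with DMSO and 100% = wells lacking PAFAH1B2; many of its hits are not listed in these tables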
Target sequence (P68402 whole entry, looked up): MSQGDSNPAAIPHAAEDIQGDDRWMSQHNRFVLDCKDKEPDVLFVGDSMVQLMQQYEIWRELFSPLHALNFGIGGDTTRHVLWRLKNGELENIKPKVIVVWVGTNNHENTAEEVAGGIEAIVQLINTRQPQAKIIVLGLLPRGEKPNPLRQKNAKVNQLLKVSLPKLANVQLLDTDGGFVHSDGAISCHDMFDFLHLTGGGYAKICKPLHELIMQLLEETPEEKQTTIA
MCL1 BIM primary = MCL1-BIM-BH3 interaction inhibition (human); Q07820; GST-MCL1 / FITC-Bim-BH3 fluorescence polarization; inhibition, % at 10.9 µM; 0.68% of 320,000 active;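 active = inhibition above the mean inhibition of all tested compounds plus 3 SD, set per campaign, cut at about 40% in these data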;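 also: 0% = DMSO wells and 100% = unlabeled Bim-BH3 peptide control; higher means more loss of mP so more displacement of Bim peptide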
GLD-1 RNA inh = GLD-1-TGE RNA interaction inhibition (C. elegans) | Q17339 | purified GLD-1 + fluorescein TGE RNA, fluorescence polarization | inhibition, % at 5.96 µM | 0.44% of 320,000 active | AID 2280;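 active = percent inhibition above a per-plate cutoff, the plate mean of test compounds plus 3 SD, cut at about 30% in these data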;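 also: 0% = DMSO wells with GLD-1 and probe and 100% = wells lacking GLD-1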
Target sequence (Q17339 whole entry, looked up): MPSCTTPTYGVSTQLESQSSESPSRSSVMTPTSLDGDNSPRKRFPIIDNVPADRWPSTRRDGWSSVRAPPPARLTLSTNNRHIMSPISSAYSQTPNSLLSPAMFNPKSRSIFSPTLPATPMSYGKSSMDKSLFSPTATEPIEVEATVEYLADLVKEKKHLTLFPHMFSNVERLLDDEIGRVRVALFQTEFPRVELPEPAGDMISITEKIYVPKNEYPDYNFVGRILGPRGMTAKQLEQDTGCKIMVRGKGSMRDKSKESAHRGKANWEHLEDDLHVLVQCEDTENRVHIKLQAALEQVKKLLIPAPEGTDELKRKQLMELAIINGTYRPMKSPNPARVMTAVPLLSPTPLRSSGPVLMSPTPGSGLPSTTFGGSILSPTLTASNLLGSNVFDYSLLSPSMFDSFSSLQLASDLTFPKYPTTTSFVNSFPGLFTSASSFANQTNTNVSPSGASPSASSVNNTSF
PME-1 inh = PME-1 (human) inhibition; recombinant PME-1, FP-Rh probe fluorescence polarization; inhibition, % at 5.9 µM; 0.53% of 320,000 active; AID 2130; Q9Y570;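 active = inhibition above the campaign mean of all compounds plus 3 SD, cut at about 26% in these data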;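 also: competitive labeling of PME-1 active site by serine hydrolase directed probe; 0% = PME-1 with DMSO and 100% = wells lacking PME-1 enzyme; inhibitors block probe labeling so polarization falls and inhibition rises; many of its hits are not listed in these tables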
Numbers without * were called inactive; . = not tested or not shown. This is a subset; the hit share may differ from the screen's.

The line under a structure holds: GLD-1 RNA inh	BCLXL inh	PAFAH1B2 inh	AHR activator	MCL1 BIM primary	PME-1 inh	MEX-5 binding	Fam108B inh
O=S(=O)(Nc1ccc(Br)cc1)c1cccc(NC(=S)NCCN2CCOCC2)c1
    0	4	13	0	13	2	0.0	1
N#Cc1cccc(NC(=O)COC(=O)c2cc(S(=O)(=O)Nc3ccccc3Cl)ccc2O)c1
    -1	.	8	-1	.	.	.	.
CC(=O)Nc1cccc(NC(=O)CSc2nnc(Cc3cccn3C)n2-c2ccc(C)cc2)c1
    1	-1	-3	-1	4	1	1.0	-2
Cc1ccccc1Cn1cnc2c(NS(C)(=O)=O)c(C)c(C)cc21
    1	8	3	3	-4	3	-1.9	2
COc1ccc(NS(=O)(=O)c2cccc(C(=O)N(C)Cc3cccs3)c2)cc1
    4	-4	4	11	-4	-1	0.7	-1
O=C(/C=C/c1ccccc1Cl)NCc1ccccc1
    7	2	4	16	-2	-2	0.5	2
Cc1cccc(NS(=O)(=O)c2cccc(C(=O)N3CCCCCC3)c2)c1
    10	3	11	-1	-1	4	1.0	1
Cc1nc2cc(C(=O)OCC(=O)NC34CC5CC(CC(C5)C3)C4)ccc2n1-c1ccccc1
    2	-3	4	0	-15	-14	0.9	0
CCCNC(=O)c1ccc2c(=O)c(O)c(-c3ccc(Cl)c([N+](=O)[O-])c3)[nH]c2c1
    3	9	38*	0	6	24	-14	14
CCCn1nc(C(=O)Nc2cc(S(=O)(=O)Nc3ccc(OC)cc3)ccc2O)c2ccccc2c1=O
    2	.	-1	1	.	.	.	.
O=C(/C=C/c1cccc([N+](=O)[O-])c1)N1CCN(Cc2ccccc2)CC1
    -5	-1	5	1	-7	2	0.1	-4
Cc1cccc(NS(=O)(=O)c2ccc(C(=O)N3CCCCCC3)cc2)c1C
    4	0	4	-3	2	10	0.8	1
O=C(CCNC(=O)c1ccccc1Cl)NCc1ccco1
    -7	1	3	1	3	8	.	.
O=C(c1cccc(NS(=O)(=O)c2cccc(F)c2)c1)N1CCN(c2ccccc2)CC1
    1	6	2	4	-5	-3	1.1	-2
Cc1cccc(CC2CC(=O)N(c3ccccc3)C2=O)c1 (stereo not given)
    2	8	5	-3	4	-14	-1.5	1
CCNc1nc(Oc2ccc(C#N)cc2)cc(C(F)(F)F)n1
    2	0	5	5	2	-6	0.6	1
COc1ccc(NS(=O)(=O)c2cccc(NC(=O)CCC(=O)c3ccc(Cl)cc3)c2)cc1
    7	-3	-4	1	3	-26	1.3	-30
Cc1cc(=O)n2[nH]c(SCc3ccccc3)nc2n1
    1	-1	4	1	-2	-2	2.2	-4
Cc1ccc2nc(-c3ccc(NS(=O)(=O)c4ccccc4)cc3)sc2c1
    6	6	-4	11	3	-5	-0.6	-2
COCCCNc1nc2ccccc2nc1NS(=O)(=O)c1ccc(Cl)cc1
    0	0	2	1	-4	1	0.5	3
Cc1ccc(S(=O)(=O)Nc2ccccc2)cc1C(=O)N1CCCC1
    1	6	-5	-2	7	4	2.4	2
CCN(CC)S(=O)(=O)c1ccc(Cl)c(NC(=O)COC(=O)c2ccc(O)cc2)c1
    4	1	1	2	6	29*	-1.0	0
CCN=C1SC(C(=O)Nc2cccc(Br)c2)CC(=O)N1CC (stereo not given)
    7	4	-4	4	3	-2	1.8	3
NC(=O)C1CCN(CC(=O)Nc2cc(Cl)ccc2Oc2ccccc2)CC1
    0	1	3	0	-3	2	2.5	0
Cc1cccc(NS(=O)(=O)c2ccc(NC(=O)CN(c3cc([N+](=O)[O-])ccc3C)S(C)(=O)=O)cc2)c1
    8	-2	-15	19	0	-35	-0.8	-19
COc1ccc2c(-c3ccccc3)cc(N3CCOCC3)nc2c1
    3	5	0	4	1	9	0.8	-1
Cc1cccc(NS(=O)(=O)c2cccc(C(=O)N3CCN(C/C=C/c4ccccc4)CC3)c2)c1
    4	5	-1	2	-1	6	.	.
O=C(N1CCOCC1)n1nnc2ccccc21
    -2	5	5	-6	5	2	-0.3	2
COc1ccc(C(=O)NCCc2ccccn2)cc1S(=O)(=O)Nc1ccc(Br)cc1
    -1	7	0	6	2	0	.	.
O=S(=O)(Nc1ccc(-c2nc3ccccc3o2)cc1)c1ccccc1
    8	6	7	8	4	-9	-2.0	2
O=C(c1ccccc1)c1nc2c(n1O)CCCCC2
    2	6	0	3	1	-8	0.2	0
COc1cccc(NC(=O)COC(=O)c2c(C)nn(-c3ccccc3)c2C)c1
    1	-1	-5	9	-4	-11	.	.
CCC(=O)N1CCc2cc(S(=O)(=O)Nc3ccccc3C)ccc21
    4	5	0	7	4	10	0.4	0
O=C(NCCC1=CCCCC1)c1ccc2c(c1)N(Cc1ccccc1)C(=O)CS2
    6	2	2	-1	3	-4	-2.3	-11
CCN(Cc1ccccc1)S(=O)(=O)c1ccc2c(c1)NC(=O)CS2
    -1	1	24*	0	2	9	0.6	6
COC(=O)CCC(=O)Nc1cc(S(=O)(=O)Nc2ccc(Cl)cc2)ccc1N1CCOCC1
    1	7	7	0	4	-8	-1.9	0
O=C(NCCc1nnc2ccc(NCc3ccc(Cl)cc3)nn12)c1ccccc1
    0	3	7	2	6	6	-0.8	-3
COc1ccccc1NC(=O)CSc1nc2ccccc2c(=O)n1CCNC(C)=O
    2	4	6	-1	2	0	0.4	4
COc1cc(S(=O)(=O)Nc2ccccc2C)ccc1Cl
    0	6	-1	0	2	7	-2.1	-7
COc1ccc(NS(=O)(=O)c2ccc(N3CCOCC3)c(NC(=O)c3ccc(F)cc3)c2)cc1
    -1	4	4	-3	7	5	-6.6	4

Complete entries, quoted from the list. Order of values: GLD-1 RNA inh, BCLXL inh, PAFAH1B2 inh, AHR activator, MCL1 BIM primary, PME-1 inh, MEX-5 binding, Fam108B inh
`COc1cccc(NC(=O)COC(=O)c2c(C)nn(-c3ccccc3)c2C)c1` is entered as 1, -1, -5, 9, -4, -11, ., .
`CCN(CC)S(=O)(=O)c1ccc(Cl)c(NC(=O)COC(=O)c2ccc(O)cc2)c1` is entered as 4, 1, 1, 2, 6, 29*, -1.0, 0

Next section.
The line under a structure holds: GLD-1 RNA inh	BCLXL inh	PAFAH1B2 inh	AHR activator	MCL1 BIM primary	PME-1 inh	MEX-5 binding	Fam108B inh
CCS(=O)(=O)Nc1ccc(-c2ccc(NS(=O)(=O)CC)c(OC)c2)cc1OC
    3	-1	2	0	-5	7	-1.4	6
O=C(COc1ccccc1)N1CCN(C(=O)c2cccs2)CC1
    7	1	3	3	-1	0	0.9	-1
Cc1c(C)c2c(OCC(=O)O)cc3c(c2oc1=O)CCC(C)(C)O3
    1	2	12	3	2	0	-1.4	-2
Cc1ccc(O)c(-c2cc(C(F)(F)C(F)F)[nH]n2)c1
    7	1	4	2	-1	-3	-0.2	-1
Cc1ccc(SCC(=O)OCC(=O)N(C)CC(=O)Nc2ccc(F)cc2)cc1C
    5	-5	8	-2	-8	-2	0.1	1
COc1ccc(C(C)=O)cc1CSc1nc2ccccc2c(=O)n1-c1ccccc1C
    7	1	1	-1	-6	-3	0.6	-3
O=C(Nc1ccccc1C(=O)O)c1cc(S(=O)(=O)Nc2ccccc2)ccc1Cl
    5	4	7	1	-1	-2	-0.4	0
O=C(NC1CCCCCC1)c1ccc(CS(=O)(=O)Cc2ccc(F)cc2)o1
    5	5	4	3	4	-4	-0.1	3
CN(c1ccccc1)S(=O)(=O)c1cccc(NC(=O)CCNC(=O)c2ccc(Cl)cc2)c1
    5	5	6	1	10	7	.	.
CCN(CC)C(=O)CSc1nc2ccccc2c(=O)n1-c1ccccc1OC
    -3	4	-2	0	-1	2	-0.7	6
Cn1c(=O)c(=O)n(C)c2cc(S(=O)(=O)Nc3ccc(OC(F)(F)F)cc3)ccc21
    1	5	7	4	-1	3	0.5	2
O=C(O)c1cc(S(=O)(=O)Nc2ccc(OCc3ccccc3)cc2)ccc1Br
    -5	0	38*	-1	2	-4	0.8	-2
O=C(Cn1cc(S(=O)(=O)Cc2ccccc2)c2ccccc21)Nc1ccccc1
    -2	5	0	19	10	1	1.1	-1
CCCCCCSc1cc(-c2nc3cnccn3c2NCc2ccccc2)ccc1OC
    -3	6	8	49*	2	1	0.3	5
N#Cc1c(NC(=O)CN2CCCCC2)sc2c1CCC2
    0	6	-5	-1	6	3	2.1	-5
O=C(O)COCC(=O)Nc1ccc(-n2nc(C(F)(F)F)cc2-c2cccs2)cc1
    6	6	.	-2	7	2	-0.4	2
CCC(C)N=CC1=C(O)C(C(=O)OC)C(C)(C)CC1=O (stereo not given)
    -4	8	4	1	4	-4	-0.3	0
O=C(NNC(=S)Nc1ccc(Cl)cc1Cl)c1ccc(N2CCOCC2)c([N+](=O)[O-])c1
    8	7	13	2	5	22	1.5	15
S=c1[nH]ncn1/N=C/c1ccccc1
    -4	-15	-2	0	-17	-1	-0.4	-6
Cc1cccc(NS(=O)(=O)c2ccc(C(=O)NCC(c3ccco3)N(C)C)cc2)c1C (stereo not given)
    -2	6	-5	1	9	10	1.8	2
CCOC(=O)N1CCN(C(=O)/C=C/c2ccc3c(c2)OCO3)CC1
    0	-2	6	7	-4	-4	1.7	-3

Not a retest: an excerpt of the list.
The line under a structure holds: GLD-1 RNA inh	BCLXL inh	PAFAH1B2 inh	AHR activator	MCL1 BIM primary	PME-1 inh	MEX-5 binding	Fam108B inh
CCC(C)N=CC1=C(O)C(C(=O)OC)C(C)(C)CC1=O (stereo not given)
    -4	8	4	1	4	-4	-0.3	0
O=C(NNC(=S)Nc1ccc(Cl)cc1Cl)c1ccc(N2CCOCC2)c([N+](=O)[O-])c1
    8	7	13	2	5	22	1.5	15
S=c1[nH]ncn1/N=C/c1ccccc1
    -4	-15	-2	0	-17	-1	-0.4	-6
Cc1cccc(NS(=O)(=O)c2ccc(C(=O)NCC(c3ccco3)N(C)C)cc2)c1C (stereo not given)
    -2	6	-5	1	9	10	1.8	2
CCOC(=O)N1CCN(C(=O)/C=C/c2ccc3c(c2)OCO3)CC1
    0	-2	6	7	-4	-4	1.7	-3
